# Bioassay records as filed in PubChem BioAssay.
# H5N1 antiviral: MDCK cell protection from H5N1 avian flu. cytopathic effect, luminescence, 72 h; hits give high values; no value below 0 was filed and about half of the inactive calls have no number; reference of the scale not given here. inhibition, % at 50 µM. hit rate 0.07% among 96,000; in the data active = inhibition above about 25%
# The depositor's hits bear a star; i = inactive. Not all compounds are listed; rates above refer to the full screens.
# Start of the listing, in advance:
SMILES,H5N1 antiviral
CCC1Oc2ccc(C)cc2N(CC(=O)NCc2ccccc2OC)C1=O (stereo unspecified),i
Cc1cc(C)cc(N(CC(=O)Nc2c(C)n(C)n(-c3ccccc3)c2=O)S(C)(=O)=O)c1,0.9
Cc1cc(C)c(NC(=O)Cn2cc3c(n2)CCCC3)c(C)c1,0.4
Cc1cc(C(F)(F)F)nc(SCC(=O)NC2CC3CCC2C3)n1 (stereo unspecified),0.6
CCC(=O)c1ccc(N2CCN(C(=O)c3cc([N+](=O)[O-])ccc3N3CCN(C)CC3)CC2)c(F)c1,1.4
CC(=O)OCc1c(C(F)(F)F)nn(C)c1Oc1ccccc1,0.4
OC(C#CCN1CCOCC1)(c1ccccc1)C1CCCCC1 (stereo unspecified),i

# This part in full, from the first entry:
SMILES,H5N1 antiviral
CCC1Oc2ccc(C)cc2N(CC(=O)NCc2ccccc2OC)C1=O (stereo unspecified),i
Cc1cc(C)cc(N(CC(=O)Nc2c(C)n(C)n(-c3ccccc3)c2=O)S(C)(=O)=O)c1,0.9
Cc1cc(C)c(NC(=O)Cn2cc3c(n2)CCCC3)c(C)c1,0.4
Cc1cc(C(F)(F)F)nc(SCC(=O)NC2CC3CCC2C3)n1 (stereo unspecified),0.6
CCC(=O)c1ccc(N2CCN(C(=O)c3cc([N+](=O)[O-])ccc3N3CCN(C)CC3)CC2)c(F)c1,1.4
CC(=O)OCc1c(C(F)(F)F)nn(C)c1Oc1ccccc1,0.4
OC(C#CCN1CCOCC1)(c1ccccc1)C1CCCCC1 (stereo unspecified),i
COc1cccc(-c2nc(C(N)=O)c3[nH]c(=O)n(-c4cccc(Cl)c4)c3n2)c1OC,0.3
CCN(CC)Cc1c[nH]c2c(C(=O)OC)cccc12,0.1
O=C(O)c1cccnc1-c1ncccc1C(=O)O,i
Cc1nn(C)c(C)c1NC(=O)c1ccc(Cl)cc1,0.6
COc1ccc(CCNC(=O)c2nnn(-c3cccc(C)c3)c2N)cc1OC,i

# Continued (three carried over from the part before).
SMILES,H5N1 antiviral
O=C(O)c1cccnc1-c1ncccc1C(=O)O,i
Cc1nn(C)c(C)c1NC(=O)c1ccc(Cl)cc1,0.6
COc1ccc(CCNC(=O)c2nnn(-c3cccc(C)c3)c2N)cc1OC,i
CC1CC(C)CN(C(=O)c2ccc3c(c2NCCO)C(=O)c2ccccc2C3=O)C1 (stereo unspecified),1.7
Cc1cc(C)c2nc(C(F)(F)F)nc(N3CC(C)OC(C)C3)c2c1 (stereo unspecified),i
O=S(=O)(NCc1ccccc1)c1ccc(S(=O)(=O)N(Cc2cccs2)CC2CCCO2)cc1 (stereo unspecified),i
O=C(Nc1ccccc1N1CCN(c2ccc(F)cc2)CC1)c1ccccc1,i
O=c1cc(O)nc(SC23CC4CC(CC(C4)C2)C3)[nH]1,2.6
COc1ccc(-n2nc(C(=O)NCC(=O)NCC3CCCO3)c3ccccc3c2=O)cc1Cl (stereo unspecified),0.3
Cc1cc(NC(=O)COc2ccc(N(C)S(=O)(=O)c3ccccc3)cc2)no1,0.5
COc1cc(C(=O)Nc2ccc(OCC(=O)O)cc2)cc(OC)c1OC,i
NC(=O)C1CC(O)CN1c1nc(CN2CCOCC2)nc2scc(-c3ccccc3)c12 (stereo unspecified),i
Nc1nc(-c2ccccc2)cn1N,i
Cc1cc(C)c(S(=O)(=O)c2ccccc2C(=O)O)c(C)c1,0.2
COC(=O)c1ccc2c(c1)C(C)(C)C(/C=C/c1ccccc1O)=[N+]2C,i
CCOc1ccc2[nH]c(=O)c(CN(Cc3ccco3)Cc3nnnn3Cc3ccccc3)cc2c1,3.3
COc1ccc(CCN2C(=O)C3C4CC(C5C(C(=O)O)=NOC45)C3C2=O)cc1OC (stereo unspecified),1.3
CCN1CCN(C(=O)C(C)N(c2ccc(C)cc2)S(C)(=O)=O)CC1 (stereo unspecified),0.3
CCCn1c(SCC(=O)Nc2nc(C)cs2)nnc1-c1cccnc1,1.9
O=c1cc(CSc2nnnn2-c2ccccc2)nc2nc[nH]n12,1.8
COc1ccc(Cl)c(Cn2c(NCCCO)nc3c2c(=O)n(C)c(=O)n3C)c1,1.7
Cc1cc(C)cc(NC(=O)CCc2nc3ccccc3[nH]2)c1,i
Fc1ccc(-c2cc3nc(-c4ccccc4)cc(N4CCOCC4)n3n2)cc1,0.2
O=C(NCc1cn2ccsc2n1)c1cccc(C(F)(F)F)c1,3.4
CCc1ccc2nc(-c3cccc(C)c3)nc(SCC(=O)NCC3CCCO3)c2c1 (stereo unspecified),i
Cc1[nH]n(-c2ccc([N+](=O)[O-])cc2)c(=O)c1C=NCCN1CCN(C(=O)c2cccc(F)c2)CC1,i
CCOC(=O)CSc1nnc(CSc2nc3ccccc3c(=O)[nH]2)n1-c1ccccc1,0.7
CCS(=O)(=O)Nc1c(C)n(C)n(-c2ccccc2)c1=O,0.2
Cc1ccc(N(CC(=O)Nc2ccc(S(=O)(=O)N3CCOCC3)cc2)S(C)(=O)=O)cc1C,0.6
CCOC(=O)c1[nH]c(C)c(C(=O)NC2CCCCCC2)c1C,i
CN(c1ccccc1)S(=O)(=O)c1ccc(NC(=S)Nc2ccccc2)cc1,0.9
O=C(NCCN1CCOCC1)C1CCN(S(=O)(=O)N2CCCCC2)CC1,i
CC1CCN(c2cc(=O)n(C3CCCCC3)c(=O)[nH]2)CC1,i
O=C(Nc1ccc(Cc2ccncc2)cc1)c1ccc(Br)o1,2.3
CCc1[nH]nc2c1C1(C(=O)N(Cc3ccccc3)c3ccccc31)C(C#N)=C(N)O2 (stereo unspecified),6.1
COc1ccc(OC)c(CCNC(=O)CC2Oc3ccccc3NC2=O)c1 (stereo unspecified),0.2
CC(C)C(NC(=O)c1cccs1)c1nnc(SCC(=O)Nc2nccs2)n1C (stereo unspecified),1.3
COc1ccc(NC(=S)NCCc2ccccc2OC)c(OC)c1,1.1
Cc1nc(NC(=O)CN2CCOCC2)sc1-c1ccccc1,0.6
O=C(c1cnn2c(C(F)(F)F)cc(-c3ccccc3)nc12)N1CCCc2ccccc21,0.4
CC(C)c1ccc(N(CC(=O)NCCSC(C)(C)C)S(C)(=O)=O)cc1,i
Cc1cccnc1-n1c(-c2ccccc2)nc2ccccc2c1=O,0.4
CCCNC(=O)N1CCN(c2nc(C(C)C)c3c(c2C#N)CC(C)(C)OC3)CC1,0.4
COc1cccc(-c2nc(CS(=O)CC(=O)O)c(C)o2)c1 (stereo unspecified),i
CCOC(=O)c1nnc2ccnn2c1N,i
N#Cc1c(NC(=O)CSc2ncn[nH]2)sc2c1CCCCC2,4.0
O=C(O)C1CC=CCC1C(=O)Nc1cccc(Cl)c1 (stereo unspecified),i
COc1cc(CC(=O)OCC(=O)Nc2cc(S(=O)(=O)N3CCCC3)ccc2Cl)cc(OC)c1OC,0.6
COc1ccc(-n2c(NC(=O)c3ccco3)c(C#N)c3nc4ccccc4nc32)cc1,i
CCOC(=O)N1CCN(c2ccccc2O)CC1,1.0
COc1cccc(-n2c(C)nc3cc(C(=O)O)ccc32)c1,1.7

# Six compounds drawn at random from those above, as already listed:
SMILES,H5N1 antiviral
O=C(O)C1CC=CCC1C(=O)Nc1cccc(Cl)c1 (stereo unspecified),i
COc1ccc(-n2c(NC(=O)c3ccco3)c(C#N)c3nc4ccccc4nc32)cc1,i
O=C(c1cnn2c(C(F)(F)F)cc(-c3ccccc3)nc12)N1CCCc2ccccc21,0.4
CCOC(=O)N1CCN(c2ccccc2O)CC1,1.0
N#Cc1c(NC(=O)CSc2ncn[nH]2)sc2c1CCCCC2,4.0
Cc1cccnc1-n1c(-c2ccccc2)nc2ccccc2c1=O,0.4

# Next part.
SMILES,H5N1 antiviral
COCCCNC(=O)Cn1nnc(-c2ccccc2NC(=O)c2ccc(F)cc2)n1,i
O=C(Cc1ccccc1)NCCn1ccc2ccccc21,1.0
O=C(Nc1ccc(N2CCN(C(=O)c3ccccc3)CC2)c(Cl)c1)c1ccc(Br)o1,0.7
CC(c1ccco1)N(C(=O)C12CC3(C)CC(C)(CC(C)(C3)C1)C2)c1ccccn1 (stereo unspecified),i
O=C(NCCO)c1cc2ccccc2cc1O,0.5
Cc1cc2cc3c(cc2nc1SCC(=O)Nc1ccccc1)CCC3,i
O=C(C1CCCC1)N(c1ccccc1)C1C=CS(=O)(=O)C1 (stereo unspecified),0.3
[N-]=[N+]=CC(=O)CC(c1ccccc1)N1C(=O)c2ccccc2C1=O (stereo unspecified),0.4
COc1ccc(-c2nc3n(c2Br)CCC3)cc1,0.3
O=C(CN1CCc2[nH]c3ccccc3c2C1)N1CCCCC1,0.0
O=C(Nc1ccccc1C(=O)N1CCOCC1)c1ccc(F)cc1,0.8
CCOc1cc(-c2nc(-c3ccncc3)no2)cc(OCC)c1OCC,i
COc1ccc(OC)c(C(c2nnnn2C2CCCC2)N2CCN(c3ccc(F)cc3)CC2)c1 (stereo unspecified),i
Cc1ccc(/C(O)=C2/C(=O)C(=O)N(CCN3CCOCC3)C2c2ccccn2)cc1 (stereo unspecified),1.2
Nn1c(CN2CCCCC2)nc2ccccc2c1=O,1.0
Cc1csc2ncc(C(=O)Nc3ccon3)c(=O)n12,i
O=Cc1cn(-c2ccccc2)nc1-c1cc2cc(O)ccc2oc1=O,i
O=C(/C=C/c1cc2c(cc1Br)OCO2)NCc1ccc(Cl)cc1,i
COc1ccc(C(C(=O)NC2CCCC2)N(C(=O)c2ccco2)c2ccc3c(c2)OCO3)cc1OC (stereo unspecified),0.2
O=C(CSc1nnc(-c2ccco2)n1CC1CCCO1)c1ccc(F)cc1 (stereo unspecified),0.9
C=C(C)CN1C(=O)c2ccccc2C1=O,i
Cc1cc(C)c(NC(=O)NC(=O)c2cccc(F)c2)c(C)n1,3.5
COc1ccc(NC(=O)CSc2nnc(-c3cccnc3)n2Cc2ccco2)c(OC)c1,0.2
COC1=CC(=O)OC12CCCCC2,i
Cc1ccc(Cl)cc1NC(=O)COC(=O)C1CCCC1,i
CCOC(=O)c1cn(-c2ccccc2)nc1-c1ccncc1,i
O=C(Cn1cccc1C(=O)c1ccccc1)NCCCN1CCOCC1,i
CN(CC(=O)Nn1cnnc1)S(=O)(=O)c1ccccc1,i
Cc1ccccc1C(=O)c1cccn1CC(=O)N1CCCCCC1,1.8
CN(C)C(=O)NC(O)C(Cl)(Cl)Cl (stereo unspecified),i
CCOC(=O)N1CCC(Nc2ccc3nnc(-c4ccccc4)n3n2)CC1,0.6
C=CCCCCCCCCC(=O)Nc1c[nH]c(=O)[nH]c1=O,0.7
CNC(=O)Nc1nnc(C(C)(C)C)s1,0.9
Cc1nn(-c2ccccc2)c2c1C(=O)N(c1ccccc1)C(=O)C(C)(C)C2,0.4
CC(C)C(=O)Nc1ccc(-c2csc(-c3ccccc3)n2)cc1,i
COc1cccc(NC(=O)N2CCCC2C(=O)NC2CC2)c1 (stereo unspecified),i
Cc1ccc(S(=O)(=O)NNC(=O)c2cnn(-c3ccccc3)c2-n2cccc2)cc1,i
COc1ccc(NC2=NC(=S)N(c3ccccc3C)C23CCCCC3)cc1,0.5
O=C(CSc1ncn[nH]1)Nc1ccccc1Sc1ccccc1,4.3
CCc1ccccc1NC(=O)CSc1ncn[nH]1,1.0
CCC1Oc2ccc(C)cc2N(CC(=O)N(Cc2cccnc2)Cc2ccc(C)o2)C1=O (stereo unspecified),0.1
Nc1nc2nc(-c3ccc(OCc4ccccc4)cc3)cc(C(F)(F)F)n2n1,0.1
COc1cc(C(=S)N2CCCCC2)ccc1O,i
CC1(C)CC(=O)C=C(NCCN2CCNCC2)C1,i
O=C(c1cccc2cccc(O)c12)N1CCCCC1,0.1
COc1ccc(C(=O)NCC(=O)O)cc1,i
COc1ccc(C2N=C(c3ccccc3)C(C)(C)N2O)cc1OC (stereo unspecified),0.5
CNc1oc(-c2ccc(Cl)cc2)nc1P(=O)(c1ccccc1)c1ccccc1,1.1
O=C(CSc1n[nH]c(-c2ccncc2)n1)NC1CCS(=O)(=O)C1 (stereo unspecified),i
COc1ccc(-c2cc(C(F)(F)F)nc(N3CCCCC3)n2)cc1OC,i
COc1ccccc1OC(=O)c1cc(Cl)nc2ccccc12,1.4
COc1cc2ccccc2cc1C(=O)Nc1ccc(Cc2ccncc2)cc1,i
COc1cccc(CN2CCN(S(=O)(=O)c3ccc(Br)cc3)CC2)c1,0.7
CCOC(=O)CSc1nnc(-c2ccc(NS(=O)(=O)c3ccc(C)cc3)cc2)o1,i
CCC(COC(=O)NC)NC(=O)Oc1ccccc1 (stereo unspecified),0.1
COc1ccc(C(=O)C2CN(C)CC2C(=O)c2ccc(OC)cc2)cc1 (stereo unspecified),1.4
CC1CN(C(=O)C2CCCCC2)C(C)CN1C(=O)C1CCCCC1 (stereo unspecified),0.2
CC1(C)CC2CC(C)(CN2S(=O)(=O)c2ccc(C(=O)Nc3ccc(Cl)c(S(=O)(=O)N4CCOCC4)c3)cc2)C1 (stereo unspecified),1.6
CC(=O)Nc1ccc(NC(=O)C2CCCN(c3nnc(-n4cccc4)s3)C2)cc1 (stereo unspecified),0.9
COc1ccc(N2C(=O)CSC2c2ccncc2)cc1 (stereo unspecified),0.1
# Additional records follow:
SMILES,H5N1 antiviral
CCCn1c(N)c(Sc2ccccc2)c(=O)n(CCC)c1=O,i
COc1ccc(CCNC(=O)c2nc3ncccn3n2)cc1OC,1.6
CCCCCC(=O)N1CC2(C)CN(C(=O)CCCCC)CC(C)(C1)C2=O,i
O=c1cc(N2CCN(Cc3ccccc3)CC2)[nH]c(=O)n1Cc1ccc(F)cc1,i
FC(F)(F)c1nc2ccccc2nc1N/N=C/c1c(Cl)cccc1Cl,1.2
Cc1ccc(C(=O)Nc2nc(=O)n(C(=O)CC(C)C)s2)cc1,i
CN(C)C(/C=C/Nc1ccc(F)cc1)=C(C#N)C#N,0.2
CCCCOCCCNC(=O)CN1C(=O)c2ccccc2C1=O,i
CCc1nnc(NC(=O)CSc2nnc(-c3ccc(S(=O)(=O)N(CC)CC)cc3)n2CC)s1,0.4
CCc1c(C)c2ccc(OCC(=O)N(C)C)c(C)c2oc1=O,0.3
CC1CN=C(NC2CCCCC2C)S1 (stereo unspecified),i
Cc1nn(C)c(C)c1S(=O)(=O)N1CCC(C(=O)NCC2COc3ccccc3O2)CC1 (stereo unspecified),0.1
CC(=O)c1c(C)[nH]c(C(=O)Nc2cccnc2)c1C,i
C=CC(=O)Nc1ccc(Br)cc1,0.6
